rRNA inh HTS – reduced GFP signal of wild-type E. coli, primary screen, bacterial rRNA inhibitor project, GFP/RFP fluorescence, OD600, single point; E. coli WT GFP vs humanized-ribosome RFP mutants, 24 h; active compounds read low; DMSO median 0, no signal -100; GFP signal change (wild-type ribosome), % (concentration not given with the values); 350,000 tested, 1.6% active; AID 720706, 2013;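 active = significant combined selectivity score with lowered wild-type GFP, culture density cut under 30%, mutant RFP and density less affected; inactive = any of these conditions unmet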; also: one replicate is shown; some compounds called inactive have numbers as strong as hits
AF4-AF9 inh – inhibitors of AF4 peptide binding to AF9, primary screen, biochemical, AlphaScreen, biotin-AF4 peptide, FLAG-AF9, single point. 350,000 tested, 0.47% active. Protein AF-9 (Homo sapiens), P42568. AID 651704, 2012. inhibition, % at 10 µM;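 active = every replicate reaching a set inhibition limit, whatever the replicate mean, cut at about 25% in these data; inconclusive = mean inhibition reaches that limit but some replicates miss it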;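 also: 0% = plate neutral control median and 100% = total signal loss; the record names both 10 and 1 µM as test concentration; the first replicate is given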
Target sequence (P42568 whole entry, looked up): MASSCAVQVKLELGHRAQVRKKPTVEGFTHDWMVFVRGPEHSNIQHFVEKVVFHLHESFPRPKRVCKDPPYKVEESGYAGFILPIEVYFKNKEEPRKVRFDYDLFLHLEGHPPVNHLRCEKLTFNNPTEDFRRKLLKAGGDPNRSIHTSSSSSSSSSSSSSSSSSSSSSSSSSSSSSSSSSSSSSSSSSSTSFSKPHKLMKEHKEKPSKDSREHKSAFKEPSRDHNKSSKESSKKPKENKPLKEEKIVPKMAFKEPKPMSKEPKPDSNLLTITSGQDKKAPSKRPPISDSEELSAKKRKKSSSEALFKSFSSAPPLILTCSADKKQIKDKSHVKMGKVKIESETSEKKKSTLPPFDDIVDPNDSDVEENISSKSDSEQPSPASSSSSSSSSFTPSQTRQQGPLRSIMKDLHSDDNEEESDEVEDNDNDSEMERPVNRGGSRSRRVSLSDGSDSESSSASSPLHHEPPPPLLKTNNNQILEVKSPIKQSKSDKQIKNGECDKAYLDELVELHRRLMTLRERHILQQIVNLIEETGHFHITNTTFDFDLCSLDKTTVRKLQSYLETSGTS
rRNA inh HTS OD600 – second read-out of rRNA inh HTS, no call of its own (marks repeat the call); OD600 change, %; measured here: OD600 growth;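 optical density of the mix in the first replicate; 0 = DMSO median and -100 = no signal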
rRNA inh HTS RFP – also measured in rRNA inh HTS; calls as there; RFP signal change, %; measured here: RFP humanized mutant strains;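 first replicate; 0 = DMSO median and -100 = no signal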
* = called active by the depositor; ? = inconclusive; & = joins results of further samples. This is a subset (hit frequency here may not be typical).

SMILES | rRNA inh HTS | rRNA inh HTS OD600 | rRNA inh HTS RFP | AF4-AF9 inh
CCNC(=O)C[C@@H]1CC[C@@H]2[C@H](COC[C@H](O)CN2C(=O)c2cccnc2)O1 | 5.5 | 23.1 | -0.9 | 1.1
CC(C)NC(=O)N(C)C[C@H]1OCCCC[C@@H](C)Oc2ccc(NC(=O)NC3CCCCC3)cc2C(=O)N([C@@H](C)CO)C[C@H]1C | -3.5 | -1.6 | -2.5 | -5.1
O=C(NCC(F)(F)F)[C@H]1[C@H](CO)[C@H]2Cn3c(cccc3=O)[C@@H]1N2C(=O)C1CCC1 | 11.6 | 20.1 | -5.6 | -2.4
Cc1ccc(S(=O)(=O)Nc2ccc3c(c2)CC(=O)N([C@H](C)CO)C[C@@H](C)[C@@H](CN(C)Cc2ccncc2)O3)cc1 | -1.2 | 2.0 | -2.9 | -0.1
COc1cccc(S(=O)(=O)Nc2ccc3c(c2)[C@H]2C[C@H](CC(=O)N[C@@H](C)c4ccccc4)O[C@@H](CO)[C@H]2O3)c1 | -3.8 | -17.2 | 2.8 | -1.0
C[C@@H]1CN([C@@H](C)CO)C(=O)c2cc(C#CC3CCCC3)cnc2O[C@@H]1CN(C)C(=O)Nc1ccccc1 | -0.2 | -12.4 | 6.2 | 1.0
COC(=O)c1cc2c(c3c4cc(F)ccc4n(S(=O)(=O)c4cccc(C)c4)c13)C(=O)N(c1ccc(OC)cc1)C2 | 6.5 | 7.9 | 1.4 | -1.7
COc1ccc(S(=O)(=O)N2C[C@@H](O)COC[C@H]3O[C@H](CC(=O)N[C@H]4CCN(Cc5ccccc5)C4)CC[C@@H]32)cc1 | 4.0 | 3.5 | 1.3 | 0.3
C[C@H]1CN([C@@H](C)CO)C(=O)Cc2cc(NC(=O)Nc3cccc4ccccc34)ccc2O[C@H]1CN(C)S(C)(=O)=O | -4.1 | -14.3 | 4.0 | 2.1
O=C(C1CCCCC1)N1CC[C@@H]2[C@H]1c1cc(C#Cc3ccc(F)cc3)ccc1N[C@@H]2CO | -0.9 | 1.3 | -2.3 | -1.8
Cc1cccc(C)c1NC(=O)Nc1nc(C(N)c2ccccc2Cl)cs1 (configuration not stated) | -1.8 | -7.4 | 4.6 | -1.3
C[C@@H]1CN([C@@H](C)CO)C(=O)Cc2cc(NC(=O)Cc3cn(C)c4ccccc34)ccc2O[C@@H]1CN(C)Cc1ccc(-c2ccccc2)cc1 | 2.0 | 2.1 | -0.2 | 0.5
Cc1noc(C)c1NC(=O)N(C)C[C@@H]1Oc2c(NC(=O)C3CCOCC3)cccc2C(=O)N([C@@H](C)CO)C[C@@H]1C | 1.3 | 2.9 | -1.4 | -1.9
CCc1nc2ccc(C(=O)NCc3ccccc3OC)cn2c1N(CCC(C)C)CCN(C)C | -0.6 | -0.9 | 23.7 | 4.8
COc1ccccc1NC(=O)N1[C@@H]2CNC[C@H]1C2c1ccc(-c2cccc(C#N)c2)cc1 (some centres not stated) | 4.4&2.2 | 8.3&-11.7 | 1.0&-0.3 | -3.4&4.4
CNC[C@@H]1Oc2c(NS(=O)(=O)c3ccc(F)cc3)cccc2C(=O)N([C@H](C)CO)C[C@@H]1C | 3.6 | -1.7 | -2.2 | -2.2
CCNC(=O)[C@H]1[C@H](CO)[C@H]2Cn3c(ccc(-c4ccccc4)c3=O)[C@@H]1N2Cc1ccccc1 | 2.0 | 3.0 | 1.1 | 0.3
COc1cccc(CNC(=O)[C@@H]2CCCN2C(=O)[C@H]2CCCCN2C(=O)c2ccccc2C)c1 | 4.2 | -2.8 | 0.8 | 0.7
O=C(NCCN1CCC(n2c(=O)[nH]c3ccccc32)CC1)c1ccc(Cl)c(Cl)c1 | -38.0 | -77.5 | -12.7 | 8.1
COc1ccccc1-c1ccc2c(c1)O[C@@H](CN(C)CC1CCOCC1)[C@@H](C)CN([C@@H](C)CO)S2(=O)=O | -0.3 | -0.8 | 1.9 | 2.2
C[C@@H]1CN([C@@H](C)CO)C(=O)Cc2cc(NC(=O)Cc3cn(C)c4ccccc34)ccc2O[C@H]1CN(C)Cc1ccc2c(c1)OCO2 | 4.6 | 3.8 | 19.8 | 12.0
Cc1ccc(S(=O)(=O)N(C)C[C@@H]2OCCCC[C@@H](C)Oc3ccc(NC(=O)Nc4ccc(C(F)(F)F)cc4)cc3C(=O)N([C@H](C)CO)C[C@@H]2C)cc1 | 4.7 | 10.8 | 0.8 | -3.3
Cc1noc(C)c1NC(=O)Nc1ccc2c(c1)CC(=O)N([C@@H](C)CO)C[C@@H](C)[C@H](CN(C)Cc1ccc(Cl)c(Cl)c1)O2 | -2.7 | -7.9 | 5.5 | 9.7
Cc1noc(C)c1S(=O)(=O)N(C)C[C@H]1OCCCC[C@H](C)Oc2ccc(NC(=O)Nc3ccc(C(F)(F)F)cc3)cc2C(=O)N([C@@H](C)CO)C[C@@H]1C | -1.0 | 4.2 | -0.4 | -1.7

Individual results from the entries so far.
Under rRNA inh HTS OD600, `Cc1noc(C)c1NC(=O)Nc1ccc2c(c1)CC(=O)N([C@@H](C)CO)C[C@@H](C)[C@H](CN(C)Cc1ccc(Cl)c(Cl)c1)O2` shows -7.9
Under rRNA inh HTS RFP, `COc1ccccc1-c1ccc2c(c1)O[C@@H](CN(C)CC1CCOCC1)[C@@H](C)CN([C@@H](C)CO)S2(=O)=O` shows 1.9

New compounds follow
SMILES | rRNA inh HTS | rRNA inh HTS OD600 | rRNA inh HTS RFP | AF4-AF9 inh
COCC(=O)Nc1ccc2c(c1)OC[C@H](C)N(C(=O)c1ccccc1F)C[C@@H](C)[C@H](OC)CN(C)C2=O | -0.3 | -3.4 | -0.2 | -0.2
Cc1noc(C)c1NC(=O)N(C)C[C@H]1Oc2c(NC(=O)Nc3ccc4c(c3)OCO4)cccc2C(=O)N([C@@H](C)CO)C[C@H]1C | -0.4 | -1.9 | -1.9 | -0.9
C[C@@H]1CN([C@@H](C)CO)C(=O)c2cc(NC(=O)NC3CCCCC3)ccc2O[C@@H]1CN(C)C(=O)Nc1ccc2c(c1)OCO2 | -4.3 | -9.7 | -0.5 | 3.7
C[C@H](CO)N1C[C@H](C)[C@H](CN(C)C(=O)Nc2ccc(F)cc2)OCc2ccccc2-c2ccccc2C1=O | 0.1 | 1.6 | -1.2 | -21.7
CCNC(=S)Nc1ccc2c(c1)c(=O)n(C)n2-c1ccc(C(C)(C)C)cc1 | -9.6 | -35.2 | 3.8 | -2.9
CCCNC(=O)N(C)C[C@H]1Oc2ncc(C#Cc3ccncc3)cc2C(=O)N([C@H](C)CO)C[C@@H]1C | 0.9 | 8.6 | -2.6 | -4.2
CCNC(=O)[C@@H]1[C@@H](CO)[C@@H]2Cn3c(ccc(-c4cccc(F)c4)c3=O)[C@@H]2N1Cc1cc(F)ccc1F | -3.9 | -18.9 | 3.7 | 2.0
COc1ccc(Cl)cc1N1C(=O)/C(=C/c2sccc2C)N=C1SCC(=O)NC1CC1 | -6.9 | -9.3 | 13.7 | 5.1
C[C@H]1CN([C@@H](C)CO)S(=O)(=O)c2ccc(/C=C/c3ccccc3)cc2O[C@H]1CN(C)C(=O)C1CC1 | -7.5 | -10.8 | 10.1 | 10.9
COc1ccc(NC(=O)N(C)C[C@H]2Oc3ccc(NC(=O)NC4CCCCC4)cc3CC(=O)N([C@@H](C)CO)C[C@@H]2C)cc1 | 4.4 | 0.5 | -0.4 | -6.5
Cc1cc(F)ccc1-c1cc(C(=O)Nc2ccccc2)[nH]n1 | -11.2 | -7.5 | -2.6 | 0.5
CCCNC(=O)N(C)C[C@H]1Oc2ncc(-c3cccc(C#N)c3)cc2C(=O)N([C@H](C)CO)C[C@@H]1C | 7.9 | 14.5 | -2.6 | -3.5
CCC(=O)N(C)C[C@@H]1Oc2ncc(C#Cc3cccnc3)cc2C(=O)N([C@@H](C)CO)C[C@@H]1C | 2.0 | 1.0 | -2.6 | -4.4
C[C@H](CO)N1C[C@H](C)[C@H](CN(C)Cc2ccncc2)Oc2ncc(C#Cc3cccc(F)c3)cc2C1=O | -0.8 | -22.1 | 14.1 | 1.6
C[C@@H]1CN([C@@H](C)CO)C(=O)c2cc(NC(=O)C3CCCCC3)ccc2O[C@H]1CN(C)C(=O)Nc1ccc2c(c1)OCO2 | -0.5 | -1.8 | -2.5 | -22.7
C[C@@H]1CN([C@H](C)CO)C(=O)c2cc(NC(=O)Cn3cnnn3)ccc2O[C@@H]1CN(C)Cc1ccc(Cl)c(Cl)c1 | -10.0 | -17.4 | 2.0 | 3.0
Cc1cc(C)c(S(=O)(=O)N2CCN(C(=O)c3ccc(-n4nc(C)c(Cl)c4C)cc3)CC2)c(C)c1 | 4.1 | -11.4 | 0.7 | -12.8
O=C(C1CCCCC1)N1C[C@H](O)[C@@H](n2cc(C3CC3)nn2)C[C@@H]1c1ccccc1 | 6.8 | 13.9 | -0.2 | -5.4
C[C@H]1CN([C@@H](C)CO)C(=O)c2cccc(NC(=O)CCCCCC(=O)Nc3ccccc3N)c2O[C@@H]1CN(C)S(=O)(=O)c1ccccc1 | -0.7 | 0.6 | -0.8 | -25.6
Cc1ccccc1S(=O)(=O)N[C@H]1CC[C@@H](CCNS(=O)(=O)c2cccc(F)c2)O[C@H]1CO | -0.5 | 6.0 | -0.7 | -4.0
C[C@@H]1CCCCO[C@H](CN(C)C(=O)NC2CCCCC2)[C@@H](C)CN([C@@H](C)CO)C(=O)c2cc(NC(=O)Nc3ccc(C(F)(F)F)cc3)ccc2O1 | -1.0 | -0.3 | -2.1 | 3.2
C[C@@H]1CCCCO[C@H](CN(C)S(C)(=O)=O)[C@@H](C)CN([C@@H](C)CO)C(=O)c2cc(NS(=O)(=O)c3ccc(F)cc3)ccc2O1 | 5.7 | -13.8 | -0.7 | -0.8
C/C=C/c1cnc2c(c1)C(=O)N([C@H](C)CO)C[C@@H](C)[C@H](CN(C)C(=O)Cc1ccccn1)O2 | 2.1 | 6.6 | -4.1 | -1.6
C[C@@H]1CN([C@H](C)CO)C(=O)Cc2cc(NC(=O)Nc3ccc4c(c3)OCO4)ccc2O[C@@H]1CN(C)Cc1ccccc1 | -5.6 | -24.4 | 6.8 | 5.9
C[C@@H]1CCCCO[C@H](CN(C)Cc2ccc(C(=O)O)cc2)[C@@H](C)CN([C@H](C)CO)C(=O)c2cc(NS(=O)(=O)c3ccc(F)cc3)ccc2O1 | -4.2 | 0.7 | -4.9 | 0.7
COc1ccc(S(=O)(=O)N(C)C[C@@H]2Oc3ccc(NC(=O)Cc4ccccc4)cc3C(=O)N([C@@H](C)CO)C[C@H]2C)cc1 | -2.5 | -5.8 | 2.2 | -2.8
C[C@@H]1CN([C@H](C)CO)C(=O)c2cccc(NC(=O)Nc3ccc(F)cc3)c2O[C@H]1CN(C)C(=O)Nc1ccccc1 | -3.8 | 0.1 | -1.5 | -0.4
Cc1noc(C)c1NC(=O)Nc1ccc2c(c1)C(=O)N([C@H](C)CO)C[C@@H](C)[C@@H](CN(C)C(=O)Nc1ccc(F)cc1)O2 | 5.7 | 7.9 | 1.1 | ?
CC(C)C1Cc2[nH]c(=S)[nH]c(=O)c2C(c2ccc(Cl)cc2)O1 (configuration not stated) | -2.7 | -18.1 | -6.0 | -2.4
Cn1nc(C(C)(C)C)cc1NC(=O)C1(C)CCN1C(=O)c1ccccc1CCc1ccccc1 (configuration not stated) | -4.8 | -4.1 | -3.0 | 0.7
O=C(NC1CCCCC1)N[C@H]1CC[C@H](CCNS(=O)(=O)c2ccccc2)O[C@H]1CO | 0.3 | -1.1 | -1.8 | 0.8
O=C(C1CCC1)N1CCCCN2[C@H](CO)[C@H](c3ccc(-c4ccncc4)cc3)[C@@H]2C1 | -2.1 | 8.2 | 0.4 | -4.0
C[C@@H]1CN([C@H](C)CO)S(=O)(=O)c2ccc(-c3cccc(C#N)c3)cc2O[C@@H]1CN(C)C(=O)Nc1cc(F)ccc1F | -6.3 | -11.7 | 3.8 | 0.0
CO[C@H]1CN(C)C(=O)c2ccc(NC(C)=O)cc2OC[C@@H](C)N(S(C)(=O)=O)C[C@@H]1C | 0.7 | 2.7 | -2.5 | -3.9
CC(C)C#Cc1cnc2c(c1)C(=O)N([C@H](C)CO)C[C@H](C)[C@H](CN(C)C(=O)c1cccc(F)c1)O2 | 4.3 | 8.6 | 2.1 | -5.1
O=C(Nc1cccc(S(=O)(=O)N2CCCC2)c1)[C@H]1C[C@H](O)[C@@H](CO)O1 | 8.5 | 25.6 | 3.6 | -1.9
C[C@H](CO)N1C[C@H](C)[C@H](CN(C)CC2CCOCC2)Oc2ncc(C#Cc3cccc(F)c3)cc2C1=O | -5.6 | -4.1 | -3.0 | 5.4
C[C@H](CO)N1C[C@H](C)[C@@H](CN(C)C(=O)[C@H](Cc2ccccc2)N(C)C)OCc2ccccc2-c2ccccc2C1=O | 0.7 | -6.2 | -0.7 | 7.4

A different layout for three compounds above.
smiles	rRNA inh HTS	rRNA inh HTS OD600	rRNA inh HTS RFP	AF4-AF9 inh
C[C@@H]1CN([C@H](C)CO)S(=O)(=O)c2ccc(-c3cccc(C#N)c3)cc2O[C@@H]1CN(C)C(=O)Nc1cc(F)ccc1F	-6.3	-11.7	3.8	0.0
CO[C@H]1CN(C)C(=O)c2ccc(NC(C)=O)cc2OC[C@@H](C)N(S(C)(=O)=O)C[C@@H]1C	0.7	2.7	-2.5	-3.9
C[C@H](CO)N1C[C@H](C)[C@H](CN(C)CC2CCOCC2)Oc2ncc(C#Cc3cccc(F)c3)cc2C1=O	-5.6	-4.1	-3.0	5.4
